NPYLR7 ag = mosquito NPYLR7 agonism | HEK293T NPYLR7/Galpha15, GCaMP6s calcium fluorescence | activation, % at 10 µM | 0.15% of 270,000 active | AID 1259423; in the data active means activation above about 40%;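 further: 0% = vehicle and 100% = reference agonist at the receptor; some compounds past the cut are filed as inactive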
NPYLR7 ag max-min = recorded beside NPYLR7 ag, whose call it bears; activation, %; measured here: Max-Min RFU normalised activation; some inactives read as strong as hits;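 span of the calcium signal over five minutes; 0% = vehicle and 100% = native peptide agonist; compound fluorescence can raise it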
* hit, by the source's call.

Results follow in this order: NPYLR7 ag, NPYLR7 ag max-min
CC(C)=Cc1nc(CC2CCN(C)CC2)no1
  9, 0
CCC1C(=O)C2(CCCCC2)C(=O)OC1c1ccccc1 (centres undefined)
  2, 3
COc1cccc(CNc2nc3c(-c4cccc(C)c4)nnn3c3ccccc23)c1
  -8, -14
CCn1c(C2CCN(C(=O)CCN3CCCO3)CC2)n[nH]c1=O
  17, 12
COc1ccc(NC(=O)Cn2c(-n3nc(C)cc3C)nc3c(c2=O)CCCC3)cc1
  -4, -6
Cc1ccc(S(=O)(=O)N2CCC(C(NS(=O)(=O)c3ccccc3)C(=O)N3CCOCC3)CC2)cc1 (centres undefined)
  -2, 0
C=CCCOC(=O)N1C[C@H](C(=O)NC)[C@H]2c3ccccc3N(CC(=O)N(C)C)C(=O)[C@]21C
  -1, 13
Cc1cccc(CSc2nnc(C(Cc3ccccc3)NC(=O)Nc3ccccc3C(F)(F)F)n2-c2ccc([N+](=O)[O-])cc2)c1 (centres undefined)
  17, 19
Cc1ccc(NC(=O)CN2CCC(c3nnc4n3CCC4)CC2)cc1F
  -4, -5
CCCS(=O)(=O)NC(=O)C1(C)CCN1C(=O)Cc1ccc(Cl)cc1Cl (centres undefined)
  3, -1
S=c1[nH]nc(-c2cccnc2)n1C1CCCCC1
  1, 0
CCc1nc(-n2ncc(C#N)c2N)c2c3c(sc2n1)CCCC3
  -2, -3
CN(Cc1ccncn1)C(=O)CC(c1ccccc1)c1ccc(F)cc1 (centres undefined)
  -1, -4
O=C(Oc1cc(=O)oc2ccccc12)c1cccnc1Cl
  -5, 24
O=C(NCc1ccccc1)N1C[C@H]2[C@H](O)[C@@H]3C[C@H](c4ccc(F)cc4)[C@@H](O3)[C@H]2C1
  9, 19
Cc1cc(C)n(C(C)CNC(=O)c2cccc(Cn3cccn3)c2)n1 (centres undefined)
  5, -7
COc1ccc(S(=O)(=O)CCCC(=O)Nc2nnc(-c3cc(C)nn3C)o2)cc1
  -1, -2
NC1CCN(C(=O)c2cccc3ccnn23)CC1
  -2, 1
O=c1c2c3n(c4cc(Cl)c([N+](=O)[O-])cc4c-2nn1-c1ccccc1)CCCCC3
  -13, -21
CCO[C@H]1COC[C@@H]1NC(=O)c1nnc2nc(C)cc(C)n12
  5, 3
N#CC1(NC(=O)C2CC(c3ccccc3)=NO2)CCCC1 (centres undefined)
  1, -3
Cc1ccc(OCc2nc(C(=O)NCc3cccc(F)c3)cs2)c(C)c1
  27, 36
Cn1c(=O)c2cc(NC(=O)CCc3ccccc3)ccc2n1Cc1cccc(C(F)(F)F)c1
  3, 1
CC1C(=O)N(c2ccc(Br)cc2)CCN1C(=O)C1CCCC1 (centres undefined)
  -1, 1
Cc1ccccc1-n1nnnc1SCC(=O)NC(C)C
  -3, -3
COc1ccc(CCN2C(=O)C3CC=CCC3C2=O)cc1OC (centres undefined)
  3, 12
Cc1cccc(OCCC(=O)NC2(C#N)CCN(C)CC2)c1C
  -1, -3
CN(Cc1cn[nH]c1-c1ccc(F)cc1)C(=O)Cc1ccccc1O
  5, 4
COc1ccc(NS(C)(=O)=O)c(NC(=O)c2ccc(C(C)(C)C)cc2)c1
  5, 7
O=c1ccc(-c2ccc(F)cc2)nn1Cc1ccc(Br)cc1
  6, 1
CC1CC1C(=O)Nc1cnc(C2CC2)nc1 (centres undefined)
  -4, -3
N[C@H](C(=O)O)c1cc(O)cc(O)c1
  -10, -2
Cc1noc(C)c1CC(C)NC(=O)N1CCC2(CCCCC2)CC1 (centres undefined)
  -6, -5
CCOc1ccc(-n2nnc3c(N4CCN(C(=O)c5ccc(Br)o5)CC4)ncnc32)cc1
  -1, -7
CCCNC(=O)C1(C)CCCN(Cc2c(F)cccc2F)C1 (centres undefined)
  -1, -2
CC(C)n1ncc2cc(C(=O)Nc3nc(-c4ccccc4Cl)cs3)cnc21
  0, 0
CC(C)(C)c1ncc(NC(=O)c2cc3c(s2)CCC3)cn1
  0, 2
COc1ccccc1-c1nc2c(OCc3ccccc3)cccn2c1NCc1ccccc1
  0, 8
Cc1c(Cl)cccc1S(=O)(=O)N1CCCN(Cc2cc(=O)c(OCc3ccc(C(C)(C)C)cc3)co2)CC1
  16, 8
N[C@@H]1CC[C@@H](Nc2cncc(C(=O)N3CCOCC3)n2)C1
  1, -6
COCC(=O)Nc1nc2c(s1)C[C@]1(C)CC[C@@H]3[C@H](OC(=O)[C@H]3C)[C@H]1[C@@H]2C
  -4, -11
CCC(=O)N1CCCC1(C)C(=O)NCc1ccc(SC)cc1 (centres undefined)
  4, 2
CCN1CCN(c2nc3c(c(=O)n(C)c(=O)n3C)n2CCSc2nc3ccccc3o2)CC1
  -2, 2
CC(C)(C(=O)NCc1cccc(NC(N)=O)c1)c1ccccc1F
  5, 2
Cc1nc2sc3c(c2c(-c2ccc(Cl)cc2)c1C(N)=O)CCC3
  5, 2
Cc1cc(C(=O)CSc2nnc(NC(=O)c3ccc(C(C)(C)C)cc3)s2)ccc1Cl
  0, 8
Cc1nc2c(=O)n(CC(=O)NCc3ccccc3)nc(-c3ccc(F)cc3)c2s1
  2, -1
O=C1NN=CN2N=C(c3ccccc3)CC12 (centres undefined)
  -4, -4
Cc1ccc(N2C(=O)C3C4C=CC(C3C2=O)C2C(=O)N(c3ccc(C)c(C)c3)C(=O)C42)cc1C (centres undefined)
  -5, -10
CC(=O)NCCc1ccc(C(=O)COC(=O)c2c3c(nc4ccccc24)CCCCC3)cc1
  -1, -5
COC(=O)c1cccc(CN2CC[C@@H](c3ccc(F)cc3)[C@H](O)C2)n1
  0, 0
CCOC(=O)C1CCN(C(=O)c2cc3n(n2)CCN(Cc2cccc(F)c2)C3=O)CC1
  14, 15
CN(Cc1cnn(C)c1)C(=O)c1cc(COc2cccc3cccnc23)on1
  -2, 0
COCCCNc1nc2nonc2nc1N1CCc2sccc2C1
  13, 3
COc1ccc(N2CN(C(=O)CN(CC(C)C)C(=O)c3cccs3)CC2=O)cc1
  3, 9
C=CCNc1ccccc1C(=O)N1CCN(CC(=O)NC(C)C)CC1
  13, 9
c1ccc2oc(NCCOc3ccc4c(c3)CCC4)nc2c1
  -8, -7
O=C(/C=C/c1ccccc1)c1ccc(O[C@@H]2O[C@H](CO)[C@@H](O)[C@H](O)[C@H]2O)cc1O
  2, -8
CCOC(=O)CCC(=O)Nc1ccc(C2SCC(=O)N2c2ccc(C)c(F)c2)cc1 (centres undefined)
  -3, 9
COc1ccc(C2=C(C(C)=O)Sc3nnc(COc4ccccc4)n3N2C(C)=O)cc1OC
  3, 0

Profiles, looked up by structure:
COc1ccc(C2=C(C(C)=O)Sc3nnc(COc4ccccc4)n3N2C(C)=O)cc1OC is listed with NPYLR7 ag = 3; NPYLR7 ag max-min = 0
CC1CC1C(=O)Nc1cnc(C2CC2)nc1 (centres undefined) is listed with NPYLR7 ag = -4; NPYLR7 ag max-min = -3
O=C1NN=CN2N=C(c3ccccc3)CC12 (centres undefined) is listed with NPYLR7 ag = -4; NPYLR7 ag max-min = -4

More structures follow.
Results follow in this order: NPYLR7 ag, NPYLR7 ag max-min
CCCCCOc1ccc(C(=O)NCCO)cc1OCCCCC
  4, 0
CCC(C)C(NCC(O)COCc1ccco1)c1nc(-c2ccc3c(c2)OCO3)no1 (centres undefined)
  5, 6
Cc1ccsc1CN(C(C)C)S(=O)(=O)c1cc(Cl)sc1Cl
  -1, 2
COc1cccc2sc(N(CCN(C)C)C(=O)c3cc(C)n(C)n3)nc12
  16, 13
COc1cc(F)ccc1-c1c(-c2ccccc2)ncn1CCc1cnc[nH]1
  -2, -3
CN(CCc1ccccc1)C1CCCN(Cc2ccc3nsnc3c2)C1 (centres undefined)
  5, 3
Cc1nn(C)c(C)c1C(=O)NNc1cccc(Cl)c1
  4, 2
c1ccc(-n2ccnc2)c(Cn2ccnc2-c2ccsc2)c1
  8, 5
CN1CC=C2C(C#N)C(=N)C(C#N)(C#N)C(c3ccc(Cl)c(Cl)c3)C2C1 (centres undefined)
  6, 9
CCc1nccn1CCNC(=O)C1NCCc2[nH]cnc21 (centres undefined)
  1, -2
CNc1nc2cnc(Nc3cccc(C)c3)cc2n1CC1CC1
  13, 2
CC(C)NC(=O)N(CC(=O)N1CCc2sccc2C1COc1ccccc1F)C1CC1 (centres undefined)
  -1, 2
O=C(Nn1c(-c2ccc([N+](=O)[O-])cc2)csc1=Nc1ccccc1)c1ccncc1
  -3, -9
CCc1nc(C)c(C(=O)NCCN2N=C(c3ccccc3)CCC2=O)o1
  9, 4
CC(C)(C)c1nc(CN2CCc3onc(-c4ccc5c(c4)OCO5)c3C2)no1
  -4, -7
COCCNC(=O)c1cn(C)c2c(=O)n(-c3ccccc3)c(=O)[nH]c12
  10, 7
CCc1nn(-c2ccccc2C)c(CC)c1C(=O)NC(C)C
  12, 22
CC(Oc1ccccc1)C(=O)N[C@H](c1nnc2c(C(F)(F)F)cccn12)C(C)C (some centres undefined)
  -7, -12
CC(C)c1nn(-c2ccccc2)c2c1C(c1ccoc1)CC(=O)N2 (centres undefined)
  5, -1
COc1ccccc1N1CCN(C(=O)c2csc(CSc3nnc(-c4ccco4)n3-c3ccccc3Cl)n2)CC1
  8, 6
Cc1cnc2c(C(=O)NC3CCCN(C(=O)c4ccco4)C3)cnn2c1 (centres undefined)
  0, 22
CC(=O)N1CCN([C@H]2[C@@H]3OC[C@@H](O3)[C@@H](NC(=O)Nc3ccccc3)[C@@H]2O)CC1
  -7, -10
O=C(CNC(=O)c1cccc(Br)c1)N=Nc1c(O)[nH]c2ccc([N+](=O)[O-])cc12
  0, -9
Cc1cc(N2C(=O)c3oc4ccc(Cl)cc4c(=O)c3C2c2ccccn2)no1 (centres undefined)
  9, 4
CSc1ccc(CN2CCCC(N3CCN(c4ccccc4)CC3)C2)cc1 (centres undefined)
  -1, 0
CCCCc1ccc(NNc2ccc(OC(=O)c3cc(=N)c4c(=O)c5ccccc5c(=O)c=4c3=N)cc2C)cc1
  1, 10
COCCNC(=O)c1c(N)n(/N=C\c2ccncc2)c2nc3ccccc3nc12
  9, 3
CN(Cc1cccc(F)c1)c1ncnc2ccccc12
  -2, -1
Cc1nc(C(Nc2nc(-c3ccccn3)nc3c2CCC3)C(C)C)n[nH]1 (centres undefined)
  0, 21
O=S(=O)(c1cccs1)N1C[C@H]2[C@H](O)[C@@H]3C[C@H](c4ccc(F)cc4)[C@@H](O3)[C@H]2C1
  5, 0

Arranged by number of heavy atoms (largest number first): part of the list above
Results follow in this order: NPYLR7 ag, NPYLR7 ag max-min
CSc1ccc(CN2CCCC(N3CCN(c4ccccc4)CC3)C2)cc1 (centres undefined)
  -1, 0
CCCCCOc1ccc(C(=O)NCCO)cc1OCCCCC
  4, 0
CNc1nc2cnc(Nc3cccc(C)c3)cc2n1CC1CC1
  13, 2

Remaining list, next part
Results follow in this order: NPYLR7 ag, NPYLR7 ag max-min
Cc1ccc(NC(=O)CN(C)C(=O)C(C)N2CCC(C)CC2)cc1 (centres undefined)
  0, -3
C=CCSC(C)C(=O)Nc1ccccc1Sc1c(C)n[nH]c1C (centres undefined)
  13, 8
Cc1cccc(C(C(=O)NCCn2ccnc2)N(C)C)c1 (centres undefined)
  1, 1
CCCn1ccnc1CN1CCN(S(=O)(=O)c2ccccc2)CC1
  3, -3
CC1CCN(S(=O)(=O)c2nn(C)cc2C(=O)NCc2ccc(N3CCCC3)cc2)CC1
  24, 24
CCCCN(CC(=O)N1CC(=O)N(c2cccc(C)c2)C1)C(=O)/C=C/c1ccccc1
  23, 29
CC(C)COC(=O)c1cc(=O)[nH]c2ccccc12
  0, -1
CC(CNCC(=O)Nc1cnccn1)Oc1cccnc1 (centres undefined)
  6, 5
CCCc1nc2nc(C)cc(C)n2c1Nc1c(C)cccc1C
  -5, -4
O=C(c1onc2ccccc12)N1CC[C@@H](c2ccc3c(c2)OCO3)[C@H](O)C1
  -2, -3
COc1ccc(-c2cc(NCCO)nc(N)n2)cc1Cl
  11, 7
O=C(CC(c1cccc([N+](=O)[O-])c1)c1c[nH]c2ccccc12)N1CCN(C/C=C/c2ccccc2)CC1 (centres undefined)
  3, 13
Cc1ccc(Oc2cnn(C)c(=O)c2Nc2cccc(C(=O)NCCN(C)C)c2)c(C)c1
  8, 12
Cc1csc(SCCCCCCC(=O)O)n1
  -1, -2
Cc1nnc(Sc2ccc(NC(=O)c3cccnc3)c(C)c2)s1
  2, 1
O=C(NCC1CCCO1)c1ccc(-c2cccc(Cl)c2)s1 (centres undefined)
  28, 39
COc1ccc(CC2(CO)CCN(Cc3ccc(F)c(OC)c3)CC2)cc1
  17, 8
CCc1[nH]c2ccc(CNC(=O)CCn3ccccc3=O)cc2c1C
  6, 2
CC(C)(C)c1cc2nc(C(=O)N3CCN(c4cccc(Cl)c4)CC3)cc(-c3cccc(F)c3)n2n1
  9, 13
CC(O)(c1ccc(F)c(F)c1)c1nc(-c2ccoc2)cs1 (centres undefined)
  11, 9
O=C(Nc1cccc2c1CCCC2)c1ccc(S(=O)(=O)N2CCOCC2)cc1
  7, 1
Cc1cc(N2CCOCC2)nc(SCc2cccc(C(=O)NCc3ccco3)c2)n1
  5, 14
CCCNC(=O)Cn1c(=O)c2c(N3CCN(C(C)=O)CC3)c(C)cnc2n(C)c1=O
  -2, -3
CCc1nc(C)sc1CNC(=O)Cc1c(C)nc2ccccn12
  7, 2
O=C(NC(Cc1ccccc1)C(=O)Nc1nnc(-c2ccc3c(c2)OCO3)s1)C1CCC1 (centres undefined)
  13, 24
O=C(NCC(c1ccncc1)N1CCOCC1)c1cccc(-n2cccn2)c1 (centres undefined)
  -4, -6
C#CCOCC(O)CN(CCN1CCOCC1)Cc1ccc(C)o1 (centres undefined)
  34, 35

Screening results as filed in PubChem BioAssay.

Not all compounds are listed; rates above refer to the full screens.
